# PrP 5UTR inh – inhibition of PrP 5' UTR reporter expression | cell-based PrP 5' UTR mRNA reporter, plate reader | inhibition, % (test concentration not listed) | actives 0.35% (n = 340,000) | AID 488862, 2010;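 active = every replicate at 50% or more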;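 also: 0 = median of the neutral control wells; tested in H4 reporter cells; numbers are from one replicate; inactives centre near -14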
# ugtP null kill – growth inhibition of ugtP-null S. aureus, primary screen, RN4220 ugtP deletion, OD600; actives 0.54% (n = 330,000); 16 h; some inactives read as strong as hits; growth inhibition, % (no concentration beside the values);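 active = z-score under -3 and OD600 up to 0.15 on both plates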;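 also: plate controls were untreated wells for no effect and antibiotic for full effect; wells of about 80 µL received 100 nL stock; the first replicate is given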
# Mtb hypoxia rep – PubChem AID 1159583; fluorescence inhibition, % (concentration not given with the values); M. tuberculosis hypoxia-regulated fluorescent reporter, fluorescence; actives 0.1% (n = 300,000);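 active = 35 to 45% if threefold the growth effect, above 45% if 1.5-fold the growth effect; inactive = the rest, general growth blockers included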;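 also: wells of about 50 µL received 100 nL stock; 0% = vehicle wells and 100% = reference inhibitor wells; whole bacteria with a GFP reporter of the hypoxia response; strong numbers were not always called active; many hits fall short of the cut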
# Sa RN4220 lethal – growth inhibition of S. aureus RN4220, primary screen, OD600 | inhibition, % (concentration not given with the values) | actives 0.33% (n = 330,000) | 16 h | AID 1259311, 2017;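 active = z-score of -3 or lower and OD600 up to 0.18 on both plates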;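 also: plate controls were untreated cells for no effect and reference antibiotic for full effect; stock transfer was 100 nL into about 80 µL; one replicate is shown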
# BJeLR lethal – MLPCN primary cell-based screen for lethality selective to Ras in HRASV12 cells; BJeLR (HRASV12) viability, CellTiter-Glo ATP luminescence, 48 h; reference of the scale not given here; inhibition, % (test concentration not listed); actives 0.17% (n = 300,000);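 active = replicate mean above 50%; inconclusive = above 50% but judged a plate artefact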;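 also: 50 nL library stock added to about 25 µL; numbers are from one replicate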
# Bead autofluor – flagged as autofluorescent in microsphere protease counterscreen; fluorescence intensity (test concentration not listed); actives 3.1% (n = 360,000); compound autofluorescence counterscreen, microsphere flow cytometry; active compounds read high; AID 624483;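 active = at least 3 SD above the mean of all compounds, about 16000 in these data; inconclusive = too few beads counted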;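 also: 100 nL of 1 mM stock went into each well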
# Mtb hypoxia rep growth – further read-out of Mtb hypoxia rep, marked with its call; growth inhibition, %; measured here: M. tuberculosis growth (absorbance);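 0% = vehicle and 100% = reference antibiotic; read after six days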
# An asterisk follows results filed as active; u = inconclusive; x = no result given.
SMILES,PrP 5UTR inh,ugtP null kill,Mtb hypoxia rep,Mtb hypoxia rep growth,Sa RN4220 lethal,BJeLR lethal,Bead autofluor
O=C(NN=Cc1ccc(O)cc1)c1cncc(Br)c1,x,11,7,1,1.2,x,x
O=[N+]([O-])c1ccc(-c2nc(NCc3ccccc3)c3ccccc3n2)cc1,2,-1,-2,2,-5.1,-4,2070
Cc1ccc(S(=O)(=O)NCc2cn3ccccc3n2)c(C)c1,-22,-3,5,13,-0.8,8,5526
COc1ccccc1N1CCN(C2CCN(S(=O)(=O)c3ccc4ccccc4c3)CC2)CC1,-22,0,14,12,2.3,18,10004
CCCN1CCC(=O)N([C@H](CSc2ccccc2)CC(C)C)CC1,-39,x,x,x,x,15,3466
COC(=O)c1[nH]c2cc(OC)ccc2c1NC(=O)CCN1CCN(c2cccc(C)c2C)CC1,-10,3,x,x,-0.6,5,3629
O=C(c1sc2ccccc2c1Cl)N(Cc1cccs1)C1CCS(=O)(=O)C1 (stereo not drawn),-23,9,x,x,-0.8,6,4362
Cc1ccc(C2OC3=C(C(=O)CC(C)(C)C3)C(N)=C2C#N)o1 (stereo not drawn),-8,4,11,6,-2.2,-23,4550
COc1ccc(-c2cc(C(F)(F)F)nc(SCC(=O)NCCN3CCOCC3)n2)cc1OC,-5,-5,4,10,0.8,-8,3173
O=C(Nc1ccccc1F)c1cccc(C(=O)Nc2ccccc2F)c1,-12,3,6,-3,3.0,-4,4596
FC(F)(F)c1cc(-c2ccccc2)nc(NC2CCCC2)n1,-28,0,17,14,-6.5,-1,4528
COc1ccc(N2CC(O)=C(c3n(C)c4ccccc4[n+]3C)C2=N)cc1,-14,2,x,x,1.0,1,4741
NC(=O)NN=Cc1ccc(-c2ccc([N+](=O)[O-])cc2)o1,x,5,-1,5,6.5,x,x
Cc1ncc(CO)c(C=NNC(=O)c2cccc(S(=O)(=O)N3CCCC3)c2)c1O,x,-1,0,9,-0.1,x,x
C=CCn1c(SCC(=O)NCCc2ccccc2)nnc1C(C)NC(=O)c1cccs1 (stereo not drawn),-20,-5,5,7,-0.5,-7,9528
Cc1cccc(C(C(=O)NC2CCCCC2)N(Cc2cccnc2)C(=O)c2csnn2)c1 (stereo not drawn),-20,2,6,2,1.3,6,3683
CCCNC(=O)N1C2=NC(C(=O)OC)=C(C(=O)OC)[C@@H]3N(Cc4ccccc4)c4ccccc4[C@]23C[C@H]1CO,-6,x,x,x,x,-3,2979
COc1ccc(C(C#N)c2cnccn2)cc1OC (stereo not drawn),0,-4,4,8,5.2,2,2924
C/C(=N\NC(=O)c1ccn(C)n1)c1ccc(NC(=O)C2CCC2)cc1,-11,x,x,x,x,-2,6024
Brc1ccc(-c2nnc3sc(CN4CCC5(CC4)OCCO5)cn23)cc1,-19,6,5,9,1.9,-8,10837
COCCn1c(=NC(=O)/C=C/c2ccccc2)sc2cc(NC(C)=O)ccc21,1,5,9,3,3.4,-6,1979
O=C(c1cccc2ccccc12)C1CCCN(Cc2ccon2)C1 (stereo not drawn),-7,-3,-1,-15,-1.0,-6,3899
O=C(C1CCC1)N1CCN(S(=O)(=O)c2ccc(F)cc2)CC1,-9,2,1,12,2.2,-10,u
Nc1ccn(CC(=O)NCc2ccc3c(c2)OCO3)c(=O)n1,-11,0,1,7,1.4,x,4140
O=C(CN1C(=O)COc2ccccc21)N(Cc1ccccc1)Cc1ccccn1,-1,5,3,-3,3.5,-6,22246*
CC(C)OC(=O)CC12CN3CN(C1)CC(CC(=O)OC(C)C)(C3)C2=O,-9,12,3,8,8.2,6,4495
O=C(c1ccc(F)cc1)N1CCCCC(S(=O)(=O)c2ccccc2)C1=O (stereo not drawn),-38,3,14,9,-3.1,-7,2082
Cc1ccc(S(=O)(=O)N2CCN(C(=O)C3CC3C)CC2)c(C)c1 (stereo not drawn),-18,1,2,1,4.3,2,u
COC(=O)/C=C1\S/C(=N/NC(=O)c2ccc(OC)cc2)NC1=O,-13,-2,0,19,-4.0,-6,3986
NNC(=O)CN1C(CN2CCOCC2)=Nc2ccc(Br)cc2C1c1ccccc1 (stereo not drawn),-25,-1,4,1,6.3,6,3911

# Record cards, from the list above. Order of screens: PrP 5UTR inh | ugtP null kill | Mtb hypoxia rep | Mtb hypoxia rep growth | Sa RN4220 lethal | BJeLR lethal | Bead autofluor
# Shown for COC(=O)c1[nH]c2cc(OC)ccc2c1NC(=O)CCN1CCN(c2cccc(C)c2C)CC1 = -10 | 3 | x | x | -0.6 | 5 | 3629
# Shown for O=C(c1sc2ccccc2c1Cl)N(Cc1cccs1)C1CCS(=O)(=O)C1 (stereo not drawn) = -23 | 9 | x | x | -0.8 | 6 | 4362
# Shown for O=[N+]([O-])c1ccc(-c2nc(NCc3ccccc3)c3ccccc3n2)cc1 = 2 | -1 | -2 | 2 | -5.1 | -4 | 2070
# Shown for C/C(=N\NC(=O)c1ccn(C)n1)c1ccc(NC(=O)C2CCC2)cc1 = -11 | x | x | x | x | -2 | 6024

# Next structures follow:
SMILES,PrP 5UTR inh,ugtP null kill,Mtb hypoxia rep,Mtb hypoxia rep growth,Sa RN4220 lethal,BJeLR lethal,Bead autofluor
COC(=O)Nc1ccc(S(=O)(=O)Nc2ncccn2)cc1,-19,7,19,16,3.0,-9,4706
CCCCCc1nc2ccccc2c(=O)n1-c1ccc(Cl)cc1[N+](=O)[O-],-17,4,-2,1,2.7,0,23302*
CCn1cc(/C=N\NC(=O)c2cc(-c3ccccc3OC)nc3ccccc23)c(C)n1,-22,x,x,x,x,3,2625
CCCC(c1nnnn1Cc1ccc(OC)cc1)N1CCC(C(N)=O)CC1 (stereo not drawn),-21,-9,x,x,3.7,-6,5064
COc1ccc(-n2cc(CN[C@H]3CCCCNC3=O)c(-c3cccc(F)c3)n2)cc1,-28,11,4,9,1.4,23,4950
O=C(CCCOc1ccccc1)Nc1ccc(S(=O)(=O)Nc2ccccn2)cc1,-43,-1,-10,-15,-1.2,8,4629
Fc1ccccc1NC(=S)NCCc1ccc(Cl)cc1,-36,-5,18,15,3.5,x,5761
Cc1ccc(C(=O)OCN2C(=O)c3ccccc3C2=O)c(O)c1,-10,-2,-2,0,2.5,6,5803
CCOC(=O)C(=Nc1ccccc1)NO,-8,3,1,-2,2.0,-10,2546
COc1ccc(-c2nnc3cccc(Cl)n23)c(OC)c1,-17,12,16,2,7.3,-2,4163
O=C1C(NS(=O)(=O)c2cccs2)=C(N2CCN(Cc3ccccc3)CC2)C(=O)c2ccccc21,1,4,13,13,11,-7,x
COc1ccccc1NS(=O)(=O)c1ccc(C)c(NC(=O)c2ccc(S(=O)(=O)N3CCCCCC3)cc2)c1,5,x,x,x,x,4,9816
NCCOc1ccccc1-c1ccccc1,-1,-4,x,x,-0.4,5,2809
OC1CN=C2CCCc3c2n(c2ccc(Cl)cc32)C1 (stereo not drawn),-18,-3,7,14,4.4,8,4022
C[n+]1cccc(CNC(=O)C=NO)c1,x,1,8,5,5.9,x,x
C[C@H](O)CC1=C[C@H](O)[C@@H](C)OC1=O,-1,-9,x,x,1.2,3,5555
CCOC(=O)N1CCN(S(=O)(=O)c2ccc(F)c(C(=O)Nc3ccc(C)c(Cl)c3)c2)CC1,-17,-4,1,4,-0.4,10,2525
COc1ccc(S(=O)(=O)NNC(=O)Nc2ccccc2OC)c(OC)c1,-11,-3,-2,0,-1.6,5,5589
COc1ccc(CCn2c(-c3cccc([N+](=O)[O-])c3)nc3nc4ccccc4nc32)cc1OC,0,1,-4,-1,9.2,7,9785
CN(Cc1ccccc1)C(=O)NC1CCCCC1,-3,-1,5,17,4.4,0,22110*
COc1ccccc1C(=O)NC(=O)CSc1nc2nc(C)cc(C)n2n1,-12,1,-2,4,2.8,x,u
CCOC(=O)c1ccc(NC(=S)N2CCSC2c2ccc(Br)cc2)cc1 (stereo not drawn),-13,-7,1,-1,-2.8,3,2566
COc1ccc(-c2cn3c(C)c(C(=O)NC(C)C)sc3n2)cc1,-9,-2,1,6,-1.0,1,23094*
COc1cc(C=NNc2nc3ccccc3s2)ccc1O,x,7,-6,-2,7.5,x,x
Cc1ccc(/C=C/C2=NN(C)C(=O)CC2)cc1,-51,x,x,x,x,14,3703
COc1ccc(Nc2nc(N3CCN(C)CC3)nc3ccccc23)c(OC)c1,-23,-18,2,-1,3.8,4,5731
Cc1ccc(CNCC2CCCO2)o1 (stereo not drawn),-11,2,9,6,2.9,-3,3969
COc1ccc(NC(=S)NC(NC(=O)CCl)C(Cl)(Cl)Cl)c([N+](=O)[O-])c1 (stereo not drawn),-16,-2,18,9,14,1,1902
Cn1c(N=Cc2c(O)ccc3ccccc23)nc2ccccc21,x,-10,-1,12,3.0,x,x
O=C(Cc1ccc(NC(=O)C2CCCN(C(=O)C3CCC3)C2)cc1)Nc1cccc(C(=O)N2CCCCC2)c1 (stereo not drawn),-17,1,-2,6,3.4,x,3888
CC(C)(C)OC(=O)NCCCCCc1nnc(SCc2ccccc2)o1,-21,1,13,3,3.5,-6,6170
C=CCn1c(NC(=O)c2ccco2)nc2ccccc21,2,-5,6,-2,4.9,2,5938
COc1cccc(-c2cc(-c3cccnc3)nc(N)c2C#N)c1,-9,0,1,2,5.0,4,3619
CC(C)(C)c1ccc(CCC(CC(=O)O)CC(=O)O)cc1,-17,-15,-4,11,-0.1,5,4660
CC(=NNC(=O)C1CC1)c1ccccc1Br,x,0,4,11,0.2,x,x
CCn1c(SCC(=O)N2CCOCC2)nc2oc3c(Cl)cc(Cl)cc3c(=O)c2c1=O,x,2,14,4,3.4,0,x
Cc1c(C)c(C)c(CO/N=C/c2cccs2)c(C)c1C,-14,x,x,x,x,0,5422
CN1C(=O)C[N+]([O-])=C(c2ccccc2)c2cc(Cl)ccc21,1,13,22,8,4.6,x,2868
N#C/C(=C\c1ccc(OCC(N)=O)cc1)c1ccccc1,-31,-4,8,14,-4.1,11,2488
Cc1cc(C)c(C)c(S(=O)(=O)NC(C(=O)NCCc2ccco2)C(C)C)c1C (stereo not drawn),-25,5,2,2,5.9,x,6347
Cc1ccc(NC(=O)CN2C(=O)NC(Cc3c[nH]c4ccccc34)C2=O)cc1 (stereo not drawn),6,-2,2,0,6.2,x,2791
Nc1nnn(CC(=O)N/N=C/c2ccc(Cl)cc2Cl)n1,-13,x,x,x,x,3,4647
Cc1cc(C)cc(OCC(=O)OCC(=O)Nc2c(C)n(C)n(-c3ccccc3)c2=O)c1,-16,5,-7,-1,2.2,-19,3197
S=c1[nH]nc(-c2ccccn2)n1/N=C/c1c(Cl)cccc1Cl,-11,x,x,x,x,-3,4100
O=C(N/N=C/c1ccc(-c2ccc([N+](=O)[O-])cc2)o1)C(O)c1ccccc1 (stereo not drawn),-38,x,x,x,x,3,2534
COc1cccc(C(=O)N2CCN(Cc3cccc(F)c3)CC2)c1,-40,-4,17,12,8.7,-13,23288*
Cc1ccc2c(COC(=O)CNS(=O)(=O)c3ccccc3)cc(=O)oc2c1,-18,4,0,0,5.0,x,3858
COC(=O)C1=C(N)Oc2cc(C)oc(=O)c2C12C(=O)Nc1ccccc12 (stereo not drawn),-5,2,12,1,6.8,5,4474
Cc1ccc(N2C(=O)C(NC(=O)c3c(F)cccc3F)(C(F)(F)F)C3=C2CC(C)(C)CC3=O)cc1 (stereo not drawn),-25,-12,-6,-2,-2.9,1,2505
Cc1ccsc1C=Nn1c(-c2cccnc2)n[nH]c1=S,x,-7,-1,4,11,x,x
CCCCOc1ccc(CCC(=O)N/N=C/c2ccco2)cc1,-24,x,x,x,x,3,3859
COc1ccc(CNC(=O)C2CCCN(c3nc4ccccc4o3)C2)c(OC)c1 (stereo not drawn),-27,7,12,2,3.0,-1,7921
O=C(COC(=O)CCOc1ccccc1)Nc1ncc(Cl)cc1Cl,-19,4,6,6,4.5,-15,2656
O=c1c2ccccc2nc(/C=C/c2ccccn2)n1-c1ccccc1,-9,-7,-2,-3,14,-10,4181
COc1ccccc1C(=O)NC(=O)COC(=O)c1ccc(NC(=O)CC#N)cc1,9,1,0,-2,1.8,3,4618

# Reformatted: results already given.
# The line under a structure holds: PrP 5UTR inh	ugtP null kill	Mtb hypoxia rep	Mtb hypoxia rep growth	Sa RN4220 lethal	BJeLR lethal	Bead autofluor
C/C(=N\NC(=O)c1ccn(C)n1)c1ccc(NC(=O)C2CCC2)cc1
    -11	x	x	x	x	-2	6024
Brc1ccc(-c2nnc3sc(CN4CCC5(CC4)OCCO5)cn23)cc1
    -19	6	5	9	1.9	-8	10837
COCCn1c(=NC(=O)/C=C/c2ccccc2)sc2cc(NC(C)=O)ccc21
    1	5	9	3	3.4	-6	1979

# Compounds were not picked by outcome. Share with any hit: about 4%.
